NPYLR7 ag: agonists of mosquito NPYLR7 receptor, primary screen, cell-based, Aedes aegypti, calcium fluorescence, mosquito biting behavior | Aedes aegypti neuropeptide Y-like receptor 7 (NPYLR7) | HEK293T NPYLR7/Galpha15, GCaMP6s calcium fluorescence | activation, % at 10 µM | 270,000 tested, 0.15% active | AID 1259423, 2018; in the data active = activation above about 40%;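 also: 0% = vehicle and 100% = reference agonist at the receptor; some compounds past the cut are filed as inactive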
NPYLR7 ag max-min: further read-out of NPYLR7 ag, marked with its call; activation, %; measured here: Max-Min RFU normalised activation; some inactives read as strong as hits;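 span of the calcium signal over five minutes; 0% = vehicle and 100% = native peptide agonist; compound fluorescence can raise it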
* hit, by the source's call; & = joins results of further samples. This is a subset (hit frequency here may not be typical).

Sample of the layout, seven compounds:
Second line of a record – NPYLR7 ag	NPYLR7 ag max-min
CCc1ccc(NC(=O)Nc2ccc(N3CCCC3)c(C(=O)NC(C)CC)c2)cc1 (stereo not given)
  -7	-5
O=C(Nn1ccc2c(cnc3nc(C(F)(F)F)nn32)c1=O)c1cccnc1
  1	-2
Cc1cc(C(=O)N(C)Cc2ccc(Cl)s2)c2c(=O)[nH]n(C)c2n1
  0	0
Cc1ccc(Cn2c(=O)c3c(nc4n(CCO)c(C)c(C)n34)n(C)c2=O)cc1
  -1	4
O=c1c(SCc2ccccc2)nccn1-c1ccc2c(c1)OCCO2
  -1	1
Oc1oc(-c2ccccc2)nc1C=Nc1ccccc1Cl
  17	7
Cc1nc(C)c(C(=O)NCCCn2nc(-c3ccccc3)ccc2=O)s1
  -3	-4

The whole of this part (from the top)
Second line of a record – NPYLR7 ag	NPYLR7 ag max-min
CCc1ccc(NC(=O)Nc2ccc(N3CCCC3)c(C(=O)NC(C)CC)c2)cc1 (stereo not given)
  -7	-5
O=C(Nn1ccc2c(cnc3nc(C(F)(F)F)nn32)c1=O)c1cccnc1
  1	-2
Cc1cc(C(=O)N(C)Cc2ccc(Cl)s2)c2c(=O)[nH]n(C)c2n1
  0	0
Cc1ccc(Cn2c(=O)c3c(nc4n(CCO)c(C)c(C)n34)n(C)c2=O)cc1
  -1	4
O=c1c(SCc2ccccc2)nccn1-c1ccc2c(c1)OCCO2
  -1	1
Oc1oc(-c2ccccc2)nc1C=Nc1ccccc1Cl
  17	7
Cc1nc(C)c(C(=O)NCCCn2nc(-c3ccccc3)ccc2=O)s1
  -3	-4
OCCn1cc(Nc2nc(-c3cccc(Cl)c3)nc3c2CCCC3)cn1
  1	1
COc1cc(-c2nc3ccccc3c(=O)n2CCc2ccccc2)cc(OC)c1OC
  1	0
CCN1CC(=O)OC1c1ccc(Cl)cc1OC (stereo not given)
  4	8
Cc1ccc(C)c(CSCCS(N)(=O)=O)c1
  5	1
CCCNC(=O)Cn1nc2c(c1NC(=O)CC1CCCC1)CSC2
  -4	-6
Cc1ccc(C(C)C)cc1OC(C)C(=O)N1CCNC(=O)C1 (stereo not given)
  6	3
Cc1cc(C(=O)N2[C@@H]3CC[C@H]2CNC(=O)C3)sc1-c1ccccc1
  2	2
CC(Sc1nnc(-c2ccccc2)o1)C(=O)NC1CC1 (stereo not given)
  3	1
O=C(O)C1CN(CCCP(=O)(O)O)CCN1 (stereo not given)
  -8	0
C=CCN1CC(C(=O)N2CCc3c(cc(-c4cccc5nc(C)ccc45)c(=O)n3CC3CC3)C2)CC1=O (stereo not given)
  7	1
CCCOC(=O)C1=C(C)N(C)C(=O)NC1c1cccc([N+](=O)[O-])c1 (stereo not given)
  -1	-7
COc1ccccc1C(=O)N/N=c1\oc2cc(O)ccc2cc1-c1nc2ccccc2[nH]1
  20	13
COc1ccc(CC(=O)N2CCOC(COCc3cccc(C)c3)C2)c(OC)c1OC (stereo not given)
  2	2
CC(C)(CNS(=O)(=O)c1ccc2c(c1)OCCCO2)N1CCc2ccccc2C1
  4	2
COc1ccc(-c2cc(=O)c3c(O)c(OC)c(O[C@H]4O[C@H](CO[C@@H]5O[C@@H](C)[C@H](O)[C@@H](O)[C@H]5O)[C@@H](O)[C@H](O)[C@H]4O)cc3o2)cc1
  -2	-9
CCC(C)c1ccc(S(=O)(=O)N2CCCC2C(=O)NCc2ccco2)cc1 (stereo not given)
  4	2
Cc1cccnc1N1CCN(Cc2ccc(S(C)(=O)=O)cc2)CC1
  12	8
CN(Cc1ccc2nsnc2c1)Cc1cnc(S(C)(=O)=O)n1CC1CCCO1 (stereo not given)
  1	2
CC(NCCOc1ccccc1)C(=O)NC1CCCC1 (stereo not given)
  -2	2
CC(C)(C)n1cc(-c2cnn(C(C)(C)C)c2)cn1
  4	-2
CN1CCC(C)(CN(C)Cc2ccc(-n3ccnc3)cc2)C1 (stereo not given)
  2	-2
CCc1nc2n(n1)C(=O)C(C(c1ccc(C(F)(F)F)cc1)N1CCN(CC)CC1)S2 (stereo not given)
  -2	-8
O=C(N/N=C\C=C\c1ccccc1)Nc1cccc2nsnc12
  -15	-17

(cont.)
Second line of a record – NPYLR7 ag	NPYLR7 ag max-min
Cc1cc(C=C2SC(=O)NC2=O)c(C)n1-c1sc2c(c1C#N)CCCC2
  -1	-2
O=c1n(CC2CCCO2)nc(C2CCNCC2)n1Cc1ccccc1 (stereo not given)
  12	4
CC(C)NC(=O)CN(C)C(C(=O)N1CCCCC1)c1ccccc1 (stereo not given)
  8	4
O=C1Nc2ccccc2SC1SCCNS(=O)(=O)c1ccc2c(c1)CN(C(=O)C(F)(F)F)CC2 (stereo not given)
  -3	-9
O=C(NC1CCN(Cn2nccc2-c2cccnc2)CC1)c1ccc(F)cc1
  -3	0
Oc1ccc(N=Nc2ccc3ccccc3c2)c2cccnc12
  0	1
CCS(=O)(=O)NC1CCN(C(=O)c2ccc(C(C)=O)s2)CC1
  4	2
CC(C)(C)OC(=O)NC(CN)c1ccc(F)cc1F (stereo not given)
  3	1
COc1ccc(Cn2c(Cc3nc(C)cs3)n[nH]c2=O)cc1
  10	7
O=C(N/N=C/c1ccc(COc2ccccc2Cl)o1)C12CC3CC(C1)CC(n1ncnn1)(C3)C2
  -5	-7
CC(C)n1nnc2cc(C(=O)O)ccc21
  4	-5
CCCN1CCN(c2nc3c(c(=O)n(C)c(=O)n3C)n2CCCc2ccccc2)CC1
  0	-1
O=c1[nH]cc(S(=O)(=O)N2CCN(c3nc4ccccc4[nH]3)CC2)c(=O)[nH]1
  -4	-7
CC(=O)Nc1ccc(-c2nc3cc(C)ccc3o2)c(Cl)c1
  1	1
CCCc1c(C)nn(-c2ccc(C(=O)N[C@@H]3C[C@@H]4C[C@H]([C@H]3C)C4(C)C)cc2)c1C
  -16	-22
c1ccc(CN2CCC(NCc3ccc4nonc4c3)CC2)nc1
  21	17
CCOC(=O)c1cnc(-c2cccc(C(F)(F)F)c2)nc1NCCCN1CCOCC1
  5	0
COC(=O)c1cc2n(n1)CCN(S(=O)(=O)c1c(C)nn(C)c1Cl)C2
  9	-3
CCOC(=O)c1c(NC(=O)CCSC)sc2c1CCC2
  5	6
CN(Cc1ccccc1)c1cc(C(C)(C)C)nc(SCc2cccc(C(=O)NCc3ccco3)c2)n1
  10	11
O=C(Nc1nc(-c2ccc(Cl)s2)cs1)C1CCC(C(F)(F)F)NC1=O (stereo not given)
  1	0
O=c1ccc(-c2ccc(Cl)cc2)nn1CCNS(=O)(=O)c1ccc(F)cc1F
  1	0
CCc1cn[nH]c1C1CCN(C(=O)c2cnn3cc(CCO)cnc23)CC1
  5	4
CCC(Nc1nc(C)nc2c1cnn2C)c1nc2ccccc2[nH]1 (stereo not given)
  5	3
CC(C)CCOCCNC(=O)CN(C)C1CCCN(c2ccccc2)C1 (stereo not given)
  -5	-8
CN(CC(N)=O)Cc1nc2ccccc2c(=O)[nH]1
  4	-3
c1ccc(-n2nnnc2NC2CCCCCC2)cc1
  3	4
N#Cc1ccc(-c2csc(N)n2)cc1
  3	1
CC(C)N(C(=O)CN1CCC1c1ccc(Cl)cc1)C(C)C (stereo not given)
  1	-5
COc1ccc(-n2c(SCC(N)=O)nc3sc4c(c3c2=O)CCC(C)C4)cc1 (stereo not given)
  -3	-10

(further entries)
Second line of a record – NPYLR7 ag	NPYLR7 ag max-min
COC(=O)CN1C(=O)/C(=C\c2ccc(Cl)cc2)SC1=S
  -1	-3
O=S1c2ccccc2N(S(=O)(=O)c2ccccc2)c2ccccc21
  0	-3
O=C(Cn1ccccc1=O)c1ccc(Cl)cc1
  -2	-2
Cc1ccc(Cl)cc1Nc1ncccc1C(=O)NC(C)CC(C)C (stereo not given)
  -16	-23
Cc1ccccc1C(=O)Nc1cc([N+](=O)[O-])ccc1-c1ccc([N+](=O)[O-])cc1
  11	8
O=C(OCC1OC2OC3(CCCCC3)OC2C2OC3(CCCCC3)OC12)c1ccccc1 (stereo not given)
  -8	-17
Cc1cccc(-c2nnc(NC(=O)C(NC(=O)Nc3ccc(Cl)cc3Cl)C(C)C)s2)c1 (stereo not given)
  0	12
Cc1nonc1CN(C)C(=O)c1cn(CCc2ccccc2)nn1
  2	-2
COCCNC(=O)c1csc(N2CCN(C)C2=O)n1
  -4	-5
CCOc1ccccc1CNC(=O)CCc1cc2c(n1CCc1cccc(F)c1)-c1ccc(OC)cc1CC2
  25	13
O=C1[C@@H]2C[C@H](O)CCN2C(=O)CN1Cc1ccc(Cl)nc1
  27	22
Cc1cc(C)n2cc(CSc3nc4ccccc4[nH]3)nc2n1
  -6	-16
Cc1cc2oc(=O)cc(Cn3ccnc3)c2cc1O
  5	8
Cc1ccc(NC(=O)CN2C(=O)c3ccccc3C2=O)cc1
  3	-4
COCCN(Cc1ccc(OC)cc1)c1c(C)nc2ccc(C(=O)NC3CCN(C)CC3)cn12
  -4	-11
COC(=O)c1cc2n(n1)CCCN(C(=O)CC1CCc3ccccc31)C2 (stereo not given)
  7	2
O=C(Cn1c(CO)cnc1SCc1ccccc1Cl)NC1CC1
  7	2
COc1ccccc1SCC(C)CNC(=O)N1CCOC(C)C1 (stereo not given)
  -7	-8
Cn1cc(CNC(=O)C2CCCN(c3nc(-c4ccccc4)nc4c3CCC4)C2)cn1 (stereo not given)
  -5	-8
CC1(C)Oc2ccc3ccc(=O)oc3c2CC1=O
  4&-1	3&-2
OC[C@H]1CCN(c2ccc3cccc(Cl)c3n2)C[C@H]1O
  24	6
CCN1CCN(C(=O)c2ccc3oc(-c4cccc(F)c4)nc3c2)CC1
  2	1
Cc1nc(C)c(-c2ccc(SCC(=O)NCc3ccccc3Cl)nn2)s1
  -14	-18
C=CCN(C(=O)c1cccc(C#CC(C)(C)O)c1)C1CCS(=O)(=O)C1 (stereo not given)
  -2	-6
O=C(NCc1cccnc1N1CCOCC1)C1Cc2ccccc2O1 (stereo not given)
  23	9
Cc1nc2c(c(=O)n1C)CN(S(=O)(=O)NCc1ccccc1)C2
  -3	-4
Cc1nn(CC(=O)c2ccc[nH]2)c(=O)c(C#N)c1C
  3	2
CCOC(=O)C1=C(C)N(CC)C(=S)NC1c1cccc(NC(=O)Nc2ccc(F)cc2F)c1 (stereo not given)
  -5	-3
COc1cccc(OCc2ccccc2)c1C(=O)N[C@@H]1C[C@H]2CC[C@@H]1C2
  -3	-5
O=C(Nn1cnc2c(cnn2-c2ccccc2)c1=O)c1cc2ccccc2o1
  11	9

(further entries)
Second line of a record – NPYLR7 ag	NPYLR7 ag max-min
S=c1[nH]nc(NCCCN2CCOCC2)s1
  -2	-5
Cc1nnnn1CCC(=O)N(CC#Cc1ccccc1)C1CCCC1
  9	9
CC(C)c1csc(CN2CCC(N3CCC(C(=O)NCC4CCCO4)CC3)CC2)n1 (stereo not given)
  11	3
OCc1ccc(CNCc2cccnc2N2CCN(c3ccccn3)CC2)o1
  3	2
O=C(NCCc1ccn(-c2ccccc2)n1)N1CCSCC1
  7	0
O=C(/C=C/c1ccc(F)c(F)c1)NCC1CCC2(CCN(Cc3ccccc3F)CC2)O1 (stereo not given)
  13	9
CCn1nnc2c(NCc3ccco3)ncnc21
  -2	8
O=C(c1ccccc1N1CCOCC1)N1CCC2(CC1)NCCNC2=O
  -1	-12
Cn1cc(C(=O)Nc2ccc3c(c2)OCO3)c2nn(-c3ccccc3)c(=O)c-2c1
  7	8
O=C1CCC(C(=O)N2CCN(Cc3cccc(-c4noc(-c5cccc(Cl)c5)n4)c3)CC2)=NN1
  -5	-3
O=C(C1CCOCC1)N1CCC2(CCCN(CC3CCCCC3)C2)C1 (stereo not given)
  10	1
CCc1[nH]n(-c2ccc(Cl)c(Cl)c2)c(=O)c1C1=C([n+]2ccccc2)C(=O)N(c2ccc3c(c2)OCO3)C1=O
  -13	-4
CCOc1ccc(-n2c(=O)c3sccc3n(Cc3nc(-c4ccccc4Cl)no3)c2=O)cc1
  6	11
C[C@@H]1CN(C(=O)C2CC23CCN(C(=O)C2=CCCC2)CC3)C[C@H](C)O1 (stereo not given in full)
  7	4
CC1CCCC(C)N1Cc1cn2ccc(Cl)cc2n1 (stereo not given)
  4&3	2&51
CCC1CN(C(=O)c2ccc(F)cc2)Cc2ccc(Cl)cc2O1 (stereo not given)
  22	10
O=C(NCc1ccccc1-n1ccnc1)[C@H]1Cc2ccccc2CN1
  1	1
COc1ccc(C(=O)N2CCCC(C(=O)NC3CCCC[C@H]3NC(=O)c3ccc(F)cc3)C2)cc1 (stereo not given in full)
  1	6
COc1ccc(C(=O)CC(=O)O)c2c1C=CC(C)(C)O2
  -4	-11
O=C(NC1CCCCC1)c1ccc(C(F)(F)F)nc1
  9	8
O=c1cc(CN2CCCC(N3CCN(c4ccccc4F)CC3)C2)[nH]c(=O)[nH]1 (stereo not given)
  9	7
CSc1ccc(Cl)c(C(=O)NCCC(=O)NCc2cccnc2)c1
  1	-4
Cn1cc(S(=O)(=O)Nc2ccc(F)cn2)nc1Cl
  -5	-5
CCN1N=C(C)C(C)n2c1nc1c2c(=O)n(CC=Cc2ccccc2)c(=O)n1C (stereo not given)
  1	4
COc1ccc(NC(=O)Cn2c(=O)n(-c3ccc(F)cc3F)c(=O)c3ccc(Cl)cc32)cc1
  23	38

Looked up by structure from the list above, two records:
Second line of a record – NPYLR7 ag	NPYLR7 ag max-min
COc1ccccc1SCC(C)CNC(=O)N1CCOC(C)C1 (stereo not given)
  -7	-8
CN1CCC(C)(CN(C)Cc2ccc(-n3ccnc3)cc2)C1 (stereo not given)
  2	-2

Screens deposited in PubChem BioAssay by Fisher Drug Discovery Resource Center.
